TRPML1 blocker – qHTS for Inhibitors of the Human Mucolipin Transient Receptor Potential 1 (TRPML1). Mucolipin-1 (Homo sapiens), Q9GZU1. activity change, negative = inhibition, % (test concentration not listed). TRPML1-inducible cells, Ca2+ dye fluorescence, FDSS; hits give low values; inhibition of EC80 agonist-evoked calcium signal. 390,000 compounds, 0.02% hits. AID 624415, 2012; in the data active means activity change below about -50%; inconclusive means about -30% to -50%; inactive means above about -30%;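 also: stimulus is agonist 54-4 at its EC80 concentration; % is scaled to controls: 0 for no effect and ±100 for the full control effect; compound concentration not given in the record; the text of the record puts the active cut at -80%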
Target sequence (Q9GZU1 whole entry, looked up): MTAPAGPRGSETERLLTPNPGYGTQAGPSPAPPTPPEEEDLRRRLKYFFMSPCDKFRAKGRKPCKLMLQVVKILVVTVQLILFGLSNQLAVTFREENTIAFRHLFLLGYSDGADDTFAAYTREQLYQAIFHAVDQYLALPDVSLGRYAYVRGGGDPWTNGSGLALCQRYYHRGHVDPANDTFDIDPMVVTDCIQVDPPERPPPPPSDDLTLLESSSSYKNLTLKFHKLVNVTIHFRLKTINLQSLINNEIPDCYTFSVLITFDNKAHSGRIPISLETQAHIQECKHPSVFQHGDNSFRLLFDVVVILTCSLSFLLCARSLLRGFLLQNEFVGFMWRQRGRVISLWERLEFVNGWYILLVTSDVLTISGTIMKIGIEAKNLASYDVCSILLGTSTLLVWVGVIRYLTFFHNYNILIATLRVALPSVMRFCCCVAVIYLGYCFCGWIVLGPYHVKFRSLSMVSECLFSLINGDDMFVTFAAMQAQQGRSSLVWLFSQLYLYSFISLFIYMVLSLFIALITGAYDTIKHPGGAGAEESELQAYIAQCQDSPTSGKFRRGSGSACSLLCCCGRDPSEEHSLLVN
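TRPML1-DL cells, Tet-induced overnight (~16 h, 37 °C) at 1,500 cells/well, were loaded with Ca8 no-wash dye plus quencher for 45-90 min at room temperature. Compounds were pinned during FDSS kinetic reading; agonist 54-4 at EC80 (4 uM final) then added.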
TRPV1 potentiator – HTS Assay for Compounds that Act as Potentiators of the Vanilloid Receptor 1. Transient receptor potential cation channel subfamily V member 1 (Homo sapiens), Q8NER1. TRPV1-expressing cells, Fluo-8 calcium influx, capsaicin EC20 potentiation; host cell line not named in the record; control for the full effect not named in the record. potentiation, % at 8.33 µM. 320,000 compounds, 0.02% hits; active means potentiation above 80%; inconclusive means 30% to 80%; inactive means below 30%; also: 0% is about no effect
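Fluo-8 calcium influx in TRPV1-expressing cells, kinetic read (ex 480/em 520 nm). Compound added and read 3 min for agonist activity, followed by capsaicin at EC20 final and 2 min further read for enhancement.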
CtBP-E1A inh – qHTS Assay for Inhibitors of the CtBP/E1A Interaction. activity change, % (concentration not given with the values). AID 651724, 2012. CtBP / adenovirus E1A interaction (AlphaScreen). AlphaScreen GST-E1A/His-CtBP binding, 1536-well; hits give low values; control for the full effect not named in the record. 340,000 compounds, 0.49% hits; in the data active means activity change below about -65%; inconclusive means about -30% to -65%; inactive means above about -30%; also: % is scaled to controls: 0 for no effect and ±100 for the full control effect
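Homogeneous bead-based format: GST-tagged E1A captured on glutathione donor beads, His-tagged CtBP on nickel acceptor beads; compounds precede bead addition by 2 h at 37 °C.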
TRPML1 ag – qHTS for Agonists of the Human Mucolipin Transient Receptor Potential 1 (TRPML1); AID 624414, 2012; TRPML1-expressing cells, Ca2+ dye fluorescence, FDSS; host cell line not named in the record; reference of the full effect not given here; 410,000 compounds, 0.12% hits; activation, % (no concentration beside the values); in the data active = activation above about 50%; inconclusive = about 30% to 50%; inactive = below about 30%; also: 0% is about no effect; the text of the record puts the active cut at 80%
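In this qHTS format, compounds were pin-transferred onto Ca8-dye-loaded TRPML1-DL cells induced with Tet overnight, and intracellular Ca2+ fluorescence was recorded kinetically for 110 s after a 10 s baseline. A subsequent 4uM final 54-4 (EC80) addition followed by a second 110 s read served as the antagonist phase.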
Six1-Eya2 blk – qHTS Assay for Inhibitors of the Six1/Eya2 Interaction. Homeobox protein SIX1 (Homo sapiens) + Protein phosphatase EYA2 (Homo sapiens), …. AlphaScreen GST-Six1/His-Eya2 binding, biochemical; hits give low values; control for the full effect not named in the record. activity change, % (test concentration not listed). 360,000 compounds, 0.56% hits. AID 651725, 2012; in the data active = activity change below about -65%; inconclusive = about -30% to -65%; inactive = above about -30%; also: % is scaled to controls: 0 for no effect and ±100 for the full control effect
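Compounds are tested against tagged Six1 and Eya2 proteins bridged by glutathione donor and nickel acceptor beads; after a one-hour incubation at 37 °C without light, AlphaScreen emission is recorded.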
D2 PAM – Beta-Arrestin HTS for Positive Allosteric Modulators of the Human D2 Dopamine Receptor: Potentiators; D(2) dopamine receptor (Homo sapiens), P14416; DiscoveRx D2 beta-arrestin cells, luminescence, 90 min; 100% = 57 uM dopamine signal; potentiation, % (concentration not given with the values); 360,000 compounds, 0.23% hits; AID 624464, 2012; active = potentiation of 50% or more; inconclusive = 30% to 50%; inactive = 30% or less;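 also: tested on top of an EC20 dose of dopamine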
Target sequence (P14416 whole entry, looked up): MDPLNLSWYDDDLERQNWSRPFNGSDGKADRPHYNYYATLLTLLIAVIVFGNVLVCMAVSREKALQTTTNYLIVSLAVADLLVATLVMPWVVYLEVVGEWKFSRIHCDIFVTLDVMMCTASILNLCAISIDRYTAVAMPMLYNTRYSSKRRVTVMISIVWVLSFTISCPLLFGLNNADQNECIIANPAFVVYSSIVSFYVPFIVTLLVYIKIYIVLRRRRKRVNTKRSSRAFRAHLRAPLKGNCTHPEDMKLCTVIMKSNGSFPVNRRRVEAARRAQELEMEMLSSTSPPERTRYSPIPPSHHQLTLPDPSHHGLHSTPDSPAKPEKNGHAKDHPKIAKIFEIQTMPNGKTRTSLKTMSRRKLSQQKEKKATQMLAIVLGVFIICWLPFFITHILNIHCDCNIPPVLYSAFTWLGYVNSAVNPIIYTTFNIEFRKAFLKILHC
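D2 cells co-treated with compound plus 50 nM dopamine (EC20) for 90 min at 37 deg C to detect potentiation. Beta-arrestin recruitment was read as enzyme-fragment luminescence after 1 h at ambient temperature. Full response was set by 57 uM dopamine.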
An asterisk follows results filed as active; ? = inconclusive; . = no result given; & = joins results of further samples.

no.	smiles	TRPML1 blocker	TRPV1 potentiator	CtBP-E1A inh	TRPML1 ag	Six1-Eya2 blk	D2 PAM
1	CC(=O)Nc1sc(-c2ccccc2)nc1-c1ccccc1	2.4	1.7	-16.8	-0.1	8.6	-18.6
2	COc1cc(S(=O)(=O)N2CCC(c3nc4ccccc4s3)CC2)ccc1S(=O)(=O)NC1CCCC1	4.0	12.0	6.4	0.9	5.4	-4.6
3	N/C(=N\OC(=O)CCCc1ccccc1)c1ccccc1	2.8	5.7	55.0	0.4	67.9	12.6
4	CCOCCCNC(=O)c1cc2sc(Cl)cc2n1CC	?	-0.5	-25.8	-0.2	?	21.4
5	CCOC(=O)Cc1csc(NC(=O)/C=C/c2ccco2)n1	0.1	-5.5	0.0	-0.1	-9.4	-9.4
6	CN1CCN(C(=S)SCC(=O)Nc2nc(-c3ccccc3)c(-c3ccccc3)o2)CC1	-0.2	3.1	3.5	0.5	?	-31.5
7	O=C(NNS(=O)(=O)c1ccc(Cl)cc1)c1sccc1-n1cccc1	3.8	.	-4.9	-0.5	-2.6	-6.5
8	FC(F)(F)c1cc(-c2ccco2)nc(-n2nc(C(F)(F)F)cc2C2CC2)n1	9.2	-2.5	4.4	1.6	7.0	-11.3
9	Cc1cccc(-c2noc(CN(C)C(=O)c3ccco3)n2)c1	8.2	5.1	-0.4	2.4	3.2	0.5
10	CC(C)[C@H](NC(=O)c1ccccc1F)C(=O)NC1CCCCC1	20.1	.	4.6	-0.6	4.9	-3.3
11	Cc1ccc(N2N=C(c3ccc(F)cc3)CC2c2ccco2)cc1 (stereo not drawn)	18.4	27.2	51.9	1.8	99.8	-8.1
12	N#C/C(=C\c1ccc(-c2ccccc2[N+](=O)[O-])o1)C(N)=O	9.5	.	-8.3	0.9	-5.8	-3.1
13	CCOC(=O)c1ccc(-c2c(C)cc3oc(=O)cc(-c4ccccc4)c3c2C)cc1	4.2	.	1.0	-0.9	-0.3	-0.4
14	COc1ccc(/C=N/NC(=O)c2ccc(NS(=O)(=O)c3cccs3)cc2)cc1	-1.4	2.3	-26.1	1.3	-12.0	-3.9
15	Cc1ccc(CCNS(=O)(=O)c2ccc3c(c2)N(C)CCO3)cc1	-9.0	4.1	-10.5	2.2	-9.8	1.4
16	Cc1c(NS(=O)(=O)c2cc([N+](=O)[O-])ccc2Cl)c(=O)n(-c2ccccc2)n1C	3.3	.	-3.3	-0.4	1.2	4.7
17	COc1ccccc1C(CNC(=O)c1ccc(NS(=O)(=O)c2ccc(F)c(C)c2)cc1)N(C)C (stereo not drawn)	15.9	1.5	1.4	0.0	-25.2	-34.9
18	CCOC(=O)Cn1cnc2sc3c(c2c1=O)CCC3	-3.5	-2.5	-1.4	-0.6	-0.1	3.8
19	CC(C)C(=O)N1CCC1(C)C(=O)Nc1cc(-c2ccccc2)nn1C (stereo not drawn)	43.0	.	21.7	-0.4	-3.2	-6.8
20	CCCCn1nc2cc(C(=O)NCC3CC3)ccc2c1OCC	-8.3	-4.6	1.6	1.6	23.2	-0.8
21	COc1cccc(NC(=O)CN2C(=O)COc3ccc(S(=O)(=O)N4CCCCCC4)cc32)c1	-4.9&-16.9	-8.2	.	1.4&2.3	-22.0	-9.5
22	Cc1c(C(C)C)c(=O)n(-c2ccc(S(=O)(=O)NCc3ccccc3)cc2)n1C	-2.9	-7.8	-15.4	1.3	-3.7	-4.1
23	CCCCc1nc(N2CCN(C(=O)c3ccco3)CC2)c(C#N)c2c1CCCC2	47.8	-26.7	-15.8	0.6	-8.1	-2.1
24	CCn1c(N)[n+](CC(=O)Nc2ccc(SC(F)F)cc2)c2ccccc21	3.2	-7.6	-3.6	5.2	2.9	-12.1
25	O=C(Nc1ccc(F)cc1F)c1cc2nc3c(c(C(F)(F)F)n2n1)CCCC3	12.4	15.2	-1.8	-0.7	-3.8	-9.3
26	COc1ccc(NC(=O)CSc2ccc3c(c2)OCCO3)cc1OC	1.1	10.5	-1.0	0.5	-11.8	-17.6
27	Cc1ccc(C)c(OCCOCCN2CCOCC2)c1	5.5	7.3	5.5	-0.5	5.9	-22.0
28	COc1cccc(OCCN2CCN(c3ncnc4c3cnn4-c3ccccc3)CC2)c1	21.1	?	-17.8	1.0	-18.6	-3.9
29	CCN1CCCC1CN(Cc1cc2ccc(C)cc2[nH]c1=O)C(=S)Nc1ccc(OC)cc1 (stereo not drawn)	-2.2	-4.3	-26.4	0.4	-23.8	-38.1
30	CC(=O)c1ccc(S(=O)(=O)N(CCCO)Cc2cc3cc(C)ccc3[nH]c2=O)cc1	-0.4	-3.5	5.7	0.0	-1.3	-4.5
31	C=CCN(C)NC(=S)Nc1ccccc1	34.9	-4.2	-3.1	1.2	1.8	-14.1
32	CC1CC(C)(C)NC(=O)O1 (stereo not drawn)	-5.0	-0.2	6.0	-0.7	-1.0	-19.7
33	OC(c1ccccc1)c1cccnc1 (stereo not drawn)	12.5	1.4	3.3	-0.2	9.1	-12.0
34	CCOc1ccc(S(=O)(=O)N(C)CC(=O)NCc2ccco2)cc1	-1.4	0.8	8.6	-0.5	-3.7	-3.4
35	NC1=NN(c2cccc(C(=O)O)c2)C(=O)C1	-6.1	26.1	0.6	-0.1	8.0	-19.0
36	CCCOc1ccc(N2C(=O)CC(NCCNc3ccc(S(=O)(=O)CC)cc3)C2=O)cc1 (stereo not drawn)	-2.1	4.0	-2.1	0.2	-6.7	-2.7
37	COc1ccc(/C=C2\Sc3ccc(C(=O)NC4CC4)cc3N(C)C2=O)cc1OC	-0.4	10.7	.	0.0	-8.5	7.8
38	COc1cccc(CNC(=O)[C@@H]2CCCN2C(=O)[C@@H]2CCCN2C(=O)c2cccc(OC)c2)c1	.	.	4.2	-0.9	-3.1	.
39	Cc1cc(NS(=O)(=O)c2ccc(NC(=O)Cc3ccc([N+](=O)[O-])cc3)cc2)nc(C)n1	-1.2	.	-4.0	0.0	-10.8	5.9
40	CCOC(=O)c1sc(SC)c2c1CCCC2=O	-0.9	-18.2	0.0	0.9	17.1	-3.1
41	COc1ccc(S(=O)(=O)N(C)C)cc1NC(=O)c1ccc2c(c1)OCCO2	31.8	25.1	-19.8	2.0	-7.2	-3.5
42	COC(=O)[C@]12CCCCC=C1N(Cc1cccc3ccccc13)C(=O)[C@H](CC(=O)N1CCCC1)C2	.	.	-1.8	-0.2	-13.5	.
43	O=C(CO/N=C/c1ccccc1OC(F)F)NCc1ccco1	8.3	-11.3	-1.7	0.1	-4.3	-1.4
44	O=C1CC(/C=C/c2ccc([N+](=O)[O-])cc2)=Nc2ccccc2N1	.	.	-8.7	.	-10.8	-8.6
45	COC(=O)C[C@H](NC(=O)Cn1cnc(C(=O)Nc2ccc(C)c(C)c2)n1)C(=O)OC	45.7	.	4.3	0.2	6.1	.
46	COc1ccc(C(=O)CCC(C)(C)[N+](=O)[O-])cc1OC	49.8	2.0	2.2	-1.1	5.1	-0.2
47	NC(=S)N/N=C/c1cc([N+](=O)[O-])ccc1Cl	51.5	8.2	.	3.3	0.9	-61.2
48	O=[N+]([O-])c1ccc(OCn2cncn2)cc1	0.0	-2.8	-10.6	-0.7	-3.2	-25.8
49	CC(=O)c1ccc(NC(=O)N2C3CCC2CC(O)(c2cccnc2)C3)cc1 (stereo not drawn)	-15.5	5.3	1.5	-0.2	2.5	-2.1
50	CC(=O)Nc1ccc(NC(=O)CSc2nc(=O)n3cccc(C)c3n2)cc1	6.9	-1.3	-15.4	0.4	1.5	-6.5
51	O=C(O)c1ccc(NC(C(=O)c2ccccc2)c2ccccc2)cc1 (stereo not drawn)	3.9	.	-7.2	-1.0	-0.8	-7.1
52	CC(C)CSc1nnc2[nH]c(=O)cc(N)n12	-12.2	25.2	5.3	0.4	7.7	1.7
53	Cc1cccc(C(C)C)c1NC(=O)CSc1nncn1C	-7.2	-3.1	2.4	2.9	-1.1	-1.7
54	Cc1cc(C)c(S(=O)(=O)/N=C2\C=C(Nc3ccc(C(=O)O)cc3)C(=O)c3ccccc32)c(C)c1	2.1	-9.8	-71.6*	13.9	?	6.0
55	O=c1sc2ccccc2n1CCOc1ccccc1	2.3	10.1	25.8	2.0	29.2	2.7
56	O=C(CNC(=O)c1ccccc1)NCC(c1ccco1)N1CCCC1 (stereo not drawn)	-6.2	.	14.5	0.0	0.8	-5.6

Further entries.
no.	smiles	TRPML1 blocker	TRPV1 potentiator	CtBP-E1A inh	TRPML1 ag	Six1-Eya2 blk	D2 PAM
57	COc1ccc(CNCCCn2cnc3c(SC)ncnc32)cc1	22.9	.	-3.3	-0.3	-1.3	-7.5
58	O=c1oc2c(CN3CCOCC3)c(O)c(Cl)cc2c2c1CCCC2	3.3	-1.6	-3.2	-0.2	3.2	-12.0
59	O=C(N/N=C/c1cn(-c2ccccc2)nc1-c1cccs1)c1ccccc1F	20.8	-2.5	-5.6	-0.3	-7.5	-4.6
60	Cc1nc2c(C)cccc2cc1C(=O)N/N=C/c1ccc(O)cc1	25.3	-7.9	-26.3	-0.2	-13.8	-14.4
61	Cc1cc(C(=O)NNc2ccc(F)cc2F)no1	12.5	-10.2	11.6	-0.2	-0.3	-6.0
62	C=CCn1c(SCc2csc(-c3ccc(Cl)cc3)n2)nnc1-c1ccccc1OC	49.6	-2.7	-8.7	6.2	-1.2	7.0
63	O=[N+]([O-])c1ccc2nccn2c1	5.7	-15.2	2.7	-0.8	3.1	-5.3
64	Cc1cccc(C2c3[nH]c4ccccc4c3CCN2C(=O)c2ocnc2C)n1 (stereo not drawn)	-6.9	10.0	-1.6	-0.2	-4.9	-0.2
65	Cc1ccc(-c2csc3nc4cc(C(N)=O)ccc4c(=O)n23)cc1	-12.7	4.3	-13.7	-0.1	-21.4	-79.2
66	CC1c2cc3c(cc2CCN1CC(=O)Nc1ccc(S(=O)(=O)N2CCCC2)cc1)OCCCO3 (stereo not drawn)	4.5	1.4	-18.8	0.1	-8.7	-3.8
67	Cc1cc(C(=O)NCc2cccs2)no1	5.1	-2.7	7.5	0.9	4.5	0.0

High-throughput results (PubChem)
